# Bioassay records (PubChem)
# Biofilm kill mix – mixtures killing C. albicans biofilm; 0.02% of 120,000 active; inhibition, % at 7.6 µM; C. albicans biofilm persisters + clotrimazole, fluorescence viability; primary screen in compound mixtures of four per well;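 active means inhibition above 30.3% in the primary screen of four-compound pools, then above 30% when the compound was retested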;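 further: compounds exposed to preformed 24 h biofilms for 48 h; the number belongs to the whole pool; some results filed as inactive read as strong as hits; inactives centre near 12; 0% = biofilm with clotrimazole alone and 100% = kill control; retested singly at about 60 µM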
#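 Assay system: C. albicans biofilms / Medium: RPMI/MOPS medium, pH 7.0 / Schedule: biofilm formation 24 h, compound exposure 48 h, 37 °C / Measured by: Alamar Blue fluorescence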
# An asterisk follows results filed as active. Some of the compounds tested; the hit share may differ from the screen's.
SMILES,Biofilm kill mix
COc1ccc(/C=C/C(=O)NCCN=C2NS(=O)(=O)c3ccccc32)cc1,-5
O=C(C1=C[C@@H](C2CCCCC2)C[C@@H](OCCCCO)O1)N1CCN(Cc2ccc3c(c2)OCO3)CC1,19
CCC(C(=O)OCC(=O)NC(=O)NC(C)(C)C)c1ccccc1 (configuration not stated),11
C=CCN1C(=O)N/C(=C/c2ccccc2OCC(=O)Nc2ccc(F)cc2)C1=O,6
CC(=O)Nc1ccc(NC(=O)c2ccccc2CCc2ccccc2)cc1,15
CCc1cccc2c1NC(=O)C2(O)CC(=O)c1cccs1 (configuration not stated),4
Cc1cc2ncn(C(=O)c3cc(-c4ccccc4)nc4ccccc34)c2cc1C,19
O=C(NC(=S)NCCC1=CCCCC1)c1ccc(Br)o1,12
COc1cc(OC)cc(C(=O)N[C@H](C(=O)NCc2ccco2)C(C)C)c1,-6
O=c1c(Cc2c(F)cccc2Cl)c(O)ccn1Cc1ccc2c(c1)OCO2,7
CCOC(=O)Cc1csc(NC(=O)COc2c(C)cccc2C)n1,-1
COCCNC(=S)N(CCc1c(C)[nH]c2ccccc12)Cc1ccco1,2
CCCc1cc(=O)[nH]c(SCC(=O)c2cc(C)n(-c3c(C)n(C)n(-c4ccccc4)c3=O)c2C)n1,11
C=CCN1CCN(C(c2cccc(OC)c2OC)c2nnnn2CCC(C)C)CC1 (configuration not stated),14
O=C(c1ccccc1)c1ccc(-c2ccc(O)cc2)cc1,22
Cc1cc(NC(=O)c2ccc([N+](=O)[O-])o2)ccc1NC(=O)c1ccco1,7
COCCn1c(SCC(=O)N2CCCc3ccccc32)nnc1-c1ccoc1C,10
CCOC(=O)c1ccc(CN(Cc2ccc(C)cc2)S(=O)(=O)c2cccc([N+](=O)[O-])c2)cc1,15
CS(=O)(=O)c1[nH]nc(-c2cccc(Cl)c2)c1C#N,13
Cc1cccc(OCC(=O)N2CCN(C(=O)c3ccc([N+](=O)[O-])cc3)CC2)c1,22
O=C(NCc1cccnc1)c1ccc(Cl)c(S(=O)(=O)Nc2ccccc2C(=O)NCc2cccnc2)c1,8
O=C(COc1ccc2c(C(F)(F)F)cc(=O)oc2c1)Nc1ccc(N2CCOCC2)cc1,14
COc1ccccc1CNS(=O)(=O)N(C)C,13
O=C(C[n+]1ccc(Cc2ccccc2)cc1)Nc1ccccc1,8
O=C(O)c1ccc(-n2cc(-c3cc4ccccc4oc3=O)[nH]c2=S)cc1,33

# The list continues:
SMILES,Biofilm kill mix
Cc1oc(C(C)(C)C)cc1C(=O)Nc1cccc(/C=C\C(=O)O)c1,16
COc1cccc2cc(C(C)N(CCCN3CCOCC3)C(=S)Nc3ccc(C)c(C)c3)oc12 (configuration not stated),16
Cc1cc(C)n(CC(=O)NC2C(=O)N3C(C(=O)O)=C(CSc4nnc(C)s4)CSC23)n1 (configuration not stated),10
C/C(CC(=O)N1CCN(C=O)CC1)=N\NC(=O)c1ccc(Br)cc1,27
O=C(COC(=O)c1cccc([N+](=O)[O-])c1)NCc1ccc2c(c1)OCO2,6
O=C(CSc1nnc2c(n1)[nH]c1ccccc12)Nc1ccc(S(=O)(=O)Nc2ncccn2)cc1,16
CCN=C1S/C(=C\c2ccc(-c3cccc(C(=O)O)c3)o2)C(=O)N1CC,6
Cc1cc(NC(=O)NN2CCOCC2)nn1-c1c(Cl)cccc1Cl,22
Cc1cccc(C)c1NC(=O)C(c1ccccc1)N1CCOCC1 (configuration not stated),16
O=C(CNCCO)N1N=C(c2cccs2)CC1c1cccs1 (configuration not stated),20
Cc1occc1C(=O)NNC(=O)c1cccc(F)c1,0
Cc1ccc(C(C(=O)NCc2ccc(F)cc2)N(CCCO)C(=O)C2COc3ccccc3O2)o1 (configuration not stated),15
CN(C)C(=O)c1cccn1-c1ncc(C(F)(F)F)cc1Cl,6
Cn1c(SCn2nnc3ccccc3c2=O)nc2ccccc2c1=O,21
CCOc1cccc(C(=O)Nc2nccs2)c1,13
CCCCCn1c(SCC(=O)CC(=O)OCC)nc2cc(C(=O)N3CCC(C(N)=O)CC3)ccc2c1=O,11
O=S(=O)(Cc1ccccc1)C1CCCCC1O (configuration not stated),14
Cc1cc(NC(=O)c2cccs2)no1,20
CC(=O)NCCNC(=O)c1ccc(-n2c(C)ccc2C)cc1,14
CCn1c(-c2ccccc2)c(C(=O)CCl)c2ccccc21,-1
O=C(NCCc1csc(-c2ccccc2)n1)c1ccco1,14
COc1ccc(N2C(=O)N(Cc3ccc(C)cc3)c3ccccc3S2(=O)=O)cc1,15
COc1cccc(-n2c(CN3CCN(c4cccc(C)c4)C(C)C3)nc3ccc([N+](=O)[O-])cc3c2=O)c1 (configuration not stated),21
CCN(CC)S(=O)(=O)c1ccc(NC(=O)c2ccc(N(C)S(C)(=O)=O)cc2)cc1,15
Cc1ccc(N2C(=O)C3C(C2=O)N2CCCN2C3c2ccccc2)cc1C (configuration not stated),13

# An excerpt of the results above:
SMILES,Biofilm kill mix
CC(=O)Nc1ccc(NC(=O)c2ccccc2CCc2ccccc2)cc1,15
CCc1cccc2c1NC(=O)C2(O)CC(=O)c1cccs1 (configuration not stated),4
Cc1cc2ncn(C(=O)c3cc(-c4ccccc4)nc4ccccc34)c2cc1C,19
O=C(NC(=S)NCCC1=CCCCC1)c1ccc(Br)o1,12

# Gathered by group: the compounds so far with a CF3 group.
SMILES,Biofilm kill mix
O=C(COc1ccc2c(C(F)(F)F)cc(=O)oc2c1)Nc1ccc(N2CCOCC2)cc1,14
CN(C)C(=O)c1cccn1-c1ncc(C(F)(F)F)cc1Cl,6

# New compounds follow:
SMILES,Biofilm kill mix
COc1ccc(S(=O)(=O)Nc2ccccc2N2CCOCC2)cc1[N+](=O)[O-],16
COc1cc(/C=C/C(=O)c2ccc(NS(=O)(=O)c3ccc(C)cc3)cc2)ccc1OC(F)F,7
O=C(COC(=O)COc1ccc(Br)cc1)NCCC1=CCCCC1,6
CCN(C(=O)CN1CCN(S(=O)(=O)c2cc(Cl)ccc2Cl)CC1)c1c(N)n(Cc2ccccc2)c(=O)[nH]c1=O,13
COc1ccc2cc(C3OCCO3)c(Cl)nc2c1,6
O=C1CCCC2=C1C(c1ccccn1)Nc1ccc(C(=O)c3ccccc3)cc1N2 (configuration not stated),12
Cc1ccnc(NS(=O)(=O)c2cc([N+](=O)[O-])ccc2C)c1,13
COc1ccc(C(C#N)=C2C=CC(=NO)C=C2)cc1,18
Brc1ccc(/C=N/n2cnnc2)s1,26
Cc1nc2nc(SCC(=O)NCCCN3CCOCC3)nn2c(C)c1Cc1ccccc1,14
O=C(Nc1nc(-c2ccccc2)c(C(=O)c2ccccc2)s1)c1ccc(S(=O)(=O)N2CCCCC2)cc1,12
Cc1ccc(/C=N/Nc2ccnc3cc(Cl)ccc23)c(C)c1,8
CCN(CC(=O)Nc1cccc(S(=O)(=O)N2CCCC2)c1)CC(=O)Nc1ccccc1OC,14
CN(C(=O)COC(=O)c1ccc([N+](=O)[O-])cc1)c1ccccc1,10
CC1CC(C)CN(C(=O)CCNS(=O)(=O)c2cccs2)C1 (configuration not stated),17
COc1cc(CNC2CCCc3ccccc32)cc(OC)c1OC (configuration not stated),8
CCCCNC(=O)C1CCC(CNS(=O)(=O)c2ccc(C)cc2)CC1 (configuration not stated),16
O=S(=O)(Nc1ccc(-c2cn3c(n2)SCC3)cc1)c1cccs1,17
CC(C)C(NC(=O)/C=C/c1cccc([N+](=O)[O-])c1)C(C)C,12
COc1ccc(C(=O)NCc2cccnc2)cc1,-4
Cc1ccc(OCC(=O)Nc2ccc(N3CCN(S(C)(=O)=O)CC3)cc2)cc1C,16
NC(=O)C1CCN(C(=O)COc2cccc3cccnc23)CC1,10
O=C(Cc1ccccc1)NNC(=S)NC(=O)c1cccs1,28
CN(C)c1cccc(C(=O)N/C=C/n2cnc3cc(C(F)(F)F)ccc32)c1,5
Cc1cc(C)nc(NC(=O)c2ccc(Cl)cc2[N+](=O)[O-])c1,10

# (more compounds)
SMILES,Biofilm kill mix
O=C(O)/C=C/C(=O)Nc1ccc(SC(F)(F)C(F)(F)C(F)(F)F)cc1,13
Cn1cc(Br)c(-c2cccc(NC(=O)CC(C)(C)CC(=O)O)c2)n1,20
O=C(O)CC1S/C(=N/N=C2CCCCC2)N(c2ccccc2)C1=O (configuration not stated),13
CCOC(=O)Cn1c(C)[n+](CC(=O)c2ccccc2)c2ccccc21,8
Cc1cccc(OCc2nnc(SCC(=O)Nc3nccs3)o2)c1,22
CCOC(=O)c1c(NC(=O)C2C3C=CC(C3)C2(C)C(=O)O)sc2c1CCCC2 (configuration not stated),13
Cc1cc(C(=O)NCC(=O)OCC(=O)N(C)C2CCCCC2)ccc1[N+](=O)[O-],19
Cc1nc(-c2ccc(S(=O)(=O)NCc3ccccn3)s2)cs1,22
COc1ccc(/C=C/C(=O)c2ccc3c4c(cccc24)CC3)cc1OC,-17
COc1ccc(-c2c(C)nc(N)nc2-c2ccc(OCc3ccc(C)cc3)cc2O)cc1OC,14
COc1nccnc1NS(=O)(=O)c1ccc(NC(=S)NC(=O)c2ccccc2)cc1,7
CC(C)Oc1ccc(CCc2nnc(SC(C)C(=O)O)n2-c2ccccc2)cc1 (configuration not stated),12
O=C1NC(=O)/C(=C\c2ccccc2OCc2ccc([N+](=O)[O-])cc2)N1,26
O=C(NCc1cccnc1)c1ccc(-c2ccc(Cl)cc2)o1,10
Cc1ccccc1C(=O)NCCN1CCOCC1,20
O=C(CN1CCN(c2ccc(O)cc2)CC1)Nc1cc(S(=O)(=O)N2CCCC2)ccc1Cl,12
C/C(=C/C(=O)N1CCN(C)CC1)C(=O)O,11
Cc1ccsc1/C=N/NC(=O)c1cccc(S(=O)(=O)Nc2ccccc2Cl)c1,23
C#CC(C)OC(=O)Nc1cnccc1C(F)(F)F (configuration not stated),5
CN1CCCC(CC2Oc3ccccc3Sc3ccccc32)C1 (configuration not stated),17
CS(=O)(=O)c1ccc(S(=O)CC(=O)OCc2ccccc2)c([N+](=O)[O-])c1 (configuration not stated),6
COc1cccc(/C=N/NC(=O)C(C)Cn2cnc3ccccc32)c1 (configuration not stated),11
O=C(c1cccnc1)N1N=C(C2CC2)CC1(O)C(F)(F)F (configuration not stated),8
CCOC(=O)c1c(O)c2ccccc2oc1=O,11
O=C(CCNS(=O)(=O)c1c(Cl)cccc1Cl)OCC(=O)c1ccccc1,14

# An excerpt from above in order of SMILES length, lowest first:
SMILES,Biofilm kill mix
Cc1ccccc1C(=O)NCCN1CCOCC1,20
CCOC(=O)c1c(O)c2ccccc2oc1=O,11
O=C(CN1CCN(c2ccc(O)cc2)CC1)Nc1cc(S(=O)(=O)N2CCCC2)ccc1Cl,12

# The list goes on:
SMILES,Biofilm kill mix
CC(=O)N1N=C(c2cccnc2)OC1c1ccc(C(C)C)cc1 (configuration not stated),24
Cc1onc(-c2ccccc2Cl)c1C(=O)Nc1ccc(Cl)cn1,5
Cc1[nH]n(-c2cccc([N+](=O)[O-])c2)c(=O)c1-c1ccccc1,8
CC(=O)n1cc([C@H]2C=C(C(=O)N3CCN(Cc4ccc5c(c4)OCO5)CC3)O[C@@H](OCc3ccc(CO)cc3)C2)c2ccccc21,21
COC(=O)c1cc(NC(=O)Nc2ccccc2)ccc1Cl,10
Cc1cc(C)nc(NC(=O)c2cc(Br)ccc2Cl)n1,12
CCOc1ccc(-c2n[nH]c(=S)n2/N=C/c2cc3c(cc2[N+](=O)[O-])OCO3)cc1,14
COc1ccc(OC)c(NC(=O)CN(Cc2ccc(Cl)cc2)S(C)(=O)=O)c1,12
O=C(CON=C1c2ccccc2-c2ccccc21)NC12CC3CC(CC(C3)C1)C2,8
Cc1csc(Nc2ccc(C(=O)O)cc2)n1,23
O=C(c1nc2ccc(Cl)cn2c1CNCCn1ccnc1)N1CCCCCCC1,5
O=C(CSCC(=O)Nc1nc(-c2ccc3c(c2)OCO3)cs1)Nc1nccs1,11
Cc1c(NC(=O)COC(=O)/C=C/c2ccc(Cl)cc2)c(=O)n(-c2ccccc2)n1C,3
O=C1c2ccccc2C(=O)N1c1cccc2cccnc12,6
O=C(CSc1nnc(CNC(=O)c2cccs2)o1)NCC1CCCO1 (configuration not stated),28
COC(=O)CN(C)C(=O)CC1C(=O)NCCN1CC(C)(C)C (configuration not stated),1
CCOc1cc(S(=O)(=O)Nc2ccc(Cl)cn2)ccc1Cl,16
O=C(CCN1CCOCC1)NNC(=O)/C(=C/c1ccccc1)NC(=O)c1ccccc1,8
Cc1ccc(C(=O)NC(=S)NNS(=O)(=O)c2ccccc2)cc1,6
CCCCNc1ccc(C(=O)O)cc1,24
Cc1cccc(/C=N/n2c(-c3ccccn3)n[nH]c2=S)c1,15
CCN(CC)S(=O)(=O)c1cccc(NC(=O)CN(C)C2CCCCC2)c1,12
COc1ccc(C(C)(C)C)cc1NC(=O)c1cc(S(=O)(=O)N(C)C)ccc1N1CCCC1,19

# Quoted at random: seven compounds from above, in no set order.
SMILES,Biofilm kill mix
O=C1CCCC2=C1C(c1ccccn1)Nc1ccc(C(=O)c3ccccc3)cc1N2 (configuration not stated),12
Cc1cccc(/C=N/n2c(-c3ccccn3)n[nH]c2=S)c1,15
COc1ccc(OC)c(NC(=O)CN(Cc2ccc(Cl)cc2)S(C)(=O)=O)c1,12
O=C(CSc1nnc(CNC(=O)c2cccs2)o1)NCC1CCCO1 (configuration not stated),28
O=C(Cc1ccccc1)NNC(=S)NC(=O)c1cccs1,28
CCOC(=O)c1ccc(CN(Cc2ccc(C)cc2)S(=O)(=O)c2cccc([N+](=O)[O-])c2)cc1,15
O=C(c1ccccc1)c1ccc(-c2ccc(O)cc2)cc1,22
